# Bioassay records (PubChem BioAssay)
# Bst PK mod – modulators of Bacillus stearothermophilus pyruvate kinase; 51,000 tested, 1.2% active; Potency, µM; AID 361; partly purified Bacillus stearothermophilus pyruvate kinase, luminescence ATP production; ribose 5-phosphate activator present at AC10; in the data active means potency below about 11 µM; inconclusive means mostly about 12 µM to 25 µM; inactive means weaker than that;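 the screen sought inhibitors and activators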;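 note: potency is the fitted concentration of half-maximal effect; scaled between full activation by ribose 5 phosphate and full inhibition by luteolin; about four in five hits inhibit and the cells do not say which; series up to 57 µM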
# TsaE inh – displaces an ADP probe from E. coli YjeE (TsaE); P0AF67; purified YjeE, fluorescence polarisation of a bound ADP probe; Potency, µM; 71,000 tested, 0.05% active; AID 605; active = well fitted falling curve; inconclusive = weaker or top-dose-only fall, or a rising curve; inactive = flat or poorly fitted curve;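 note: top concentration of the series not given in the record; excess ADP was the control for the full effect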
#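 Fluorescence polarization of a BODIPY Texas Red–ADP probe (2 uM) bound to purified YjeE (10 uM) was read after 15 min room-temperature incubation with compounds. Loss of polarization marks inhibitors; ADP serves as titrated control.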
# Active calls of the source: *; i = inactive; ? = inconclusive; . = no result given. An excerpt (hit frequency here may not be typical).
no.	Bst PK mod	TsaE inh	SMILES
1	?	i	Cc1cc(S(=O)(=O)n2cnc3ccccc32)c(C)cc1Cl
2	>26	.	Cc1nn(C)cc1CNC(=O)c1ccc(Br)o1
3	.	i	Cc1ccc(C)c(-n2nnnc2SCC(=O)NCCC2=CCCCC2)c1
4	.	i	Cc1c(C#N)c2ncn(Cc3ccccc3)c(=O)c2n1-c1ccccc1
5	>57	i	O=C(NCc1ccccc1)C1CCCN(S(=O)(=O)c2cccnc2)C1 (stereo not drawn)
6	.	i	CCC(=O)Nc1cccc(Br)c1
7	>57	i	CCOC(=O)c1cc(-c2ccc(Cl)s2)nc2c1c(C)nn2C
8	>57	i	O=C1NCCN1C(=O)c1ccccc1F
9	>57	i	CN1C(=O)NC(NC(=O)c2ccncc2)(C(F)(F)F)C1=O (stereo not drawn)
10	.	i	CN(Cc1ccco1)c1ccnc(-c2ccoc2)n1
11	>57	i	CCCN1C(=O)SC(CC(=O)Nc2ccc(Br)cc2)C1=O (stereo not drawn)
12	>57	i	CC1CCCCC1n1c(=S)[nH]c2ccccc2c1=O (stereo not drawn)
13	.	i	O=c1cc(-c2cccc(O)c2O)oc2ccccc12
14	>57	i	COc1ccc(-n2ncc3c(=O)n(CC(=O)N4CCCc5ccccc54)cnc32)cc1
15	>57	i	CCCS(=O)(=O)N1CCC(C(=O)NCc2cccnc2)CC1
16	.	i	C=CC(=O)OCCOCCOC(=O)C=C
17	.	i	O=C(N/N=C\c1ccc2c(c1)CCC2)c1ccccc1O
18	>57	i	COC(=O)c1ccc(Cl)c(NC(=O)CN(c2ccc3c(c2)OCO3)S(C)(=O)=O)c1
19	>57	i	COc1ccc(-c2nnc(Nc3nc4c(OC)cccc4s3)o2)cc1
20	.	i	O=C(O)c1ccc(COc2c(F)c(F)cc(F)c2F)o1
21	>57	i	CS(=O)(=O)N(CC(=O)Nc1ccc2c(c1)OCO2)c1ccccc1
22	>57	i	CCOc1ccc(Cc2nc(C)c(CC(=O)N3CCOCC3)c(=O)[nH]2)cc1
23	.	i	O=C(c1cccs1)N1CCc2ccccc21
24	>57	i	CCCCOC(=O)C1CCCC(C(=O)OCCCC)N1 (stereo not drawn)
25	>57	i	O=C(CSc1nc(-c2ccccc2)cs1)N1CCN(C(=O)c2ccco2)CC1
26	.	i	CCOc1ccc(C2c3c(oc4cc(C)c(C)cc4c3=O)C(=O)N2CCCN2CCOCC2)cc1 (stereo not drawn)
27	.	i	Cc1nc2ccccc2c2oc(C(=O)NCC3CCCO3)cc12 (stereo not drawn)
28	.	i	O=C(O)[C@H](CCc1ccccn1)c1ccccc1
29	>57	i	CCn1c(=O)n(CC(=O)NC2CCCC(C)C2C)c(=O)c2ccccc21 (stereo not drawn)
30	>57	i	CCC(=O)Nc1ccc2c(c1)nc(CCN1CCN(C)CC1)n2C
31	>57	i	COc1ccc(Cl)cc1-c1n[nH]c(=S)o1
32	>57	i	CCOc1ccc(NC(=O)Cn2nnc(-c3ccccc3NC(=O)CC)n2)cc1
33	>57	i	O=C(NCc1ccco1)C(c1ccco1)N(CCc1ccccc1)C(=O)Cn1nnc2ccccc21 (stereo not drawn)
34	>57	i	O=C(CN1C(=O)NC2(CCCC2)C1=O)N1CCN(C(=O)c2ccco2)CC1
35	.	i	O=S(=O)(c1ccccc1)N1CCC2(CCCN(Cc3cc(C(F)(F)F)cc(C(F)(F)F)c3)C2)CC1
36	>57	i	Cc1cc2oc(=O)cc(CN3CCN(Cc4ccc5c(c4)OCO5)CC3)c2cc1C
37	>57	i	CSc1nc(C)cc(-n2ccc(=O)[nH]c2=O)n1
38	.	i	Cc1nnc(NC(=O)CCCCCN2C(=O)C3C4C=CC(C4)C3C2=O)s1 (stereo not drawn)
39	.	?	O=C(c1ccc(Br)o1)N1CCN(c2ccc3nnc(-c4ccccc4)n3n2)CC1
40	>57	i	Cc1c(-c2ccccc2)oc2nc3c(c(=O)n(C)c(=O)n3C)n12
41	.	i	Cc1onc(-c2ccccc2)c1C(=O)Nc1sc2c(c1C#N)CCC(C)C2 (stereo not drawn)
42	.	i	CN[C@]1(C)[C@H]2CC[C@@H](C2)C1(C)C
43	>57	i	Cc1ccc(Cc2nc(-c3cccc(C)c3)no2)cc1
44	>57	i	COc1ccc(Cc2nn3c(-c4ccccc4OC)nnc3s2)cc1
45	.	i	COC(=O)[C@@]1(Cc2ccc(F)cc2)[C@H]2c3cc(C(=O)N4CCCC4)n(CCc4c[nH]c5cc(F)ccc45)c3C[C@H]2CN1C(=O)c1ccccc1
46	>57	i	COc1cc(OC)c2c(C)c(Cl)c(=O)oc2c1
47	>57	i	CCCC12CN(C(=O)c3ccc(OC)cc3)CC(C)(CN(C(=O)c3ccc(OC)cc3)C1)C2=O
48	>57	i	COc1cc(N2C(=O)NC3CC2(C)Oc2ccc(Br)cc23)cc(OC)c1OC (stereo not drawn)
49	>57	i	COc1cc2c(cc1OC)C(C(=O)NCc1ccco1)C(c1cccs1)N(C)C2=O (stereo not drawn)
50	>26	.	C=CCOc1nc2c(c(=O)n(C)c(=O)n2C)n1Cc1ccc(Cl)cc1Cl

# Entries shown so far with a thiophene ring, fused or not:
no.	Bst PK mod	TsaE inh	SMILES
7	>57	i	CCOC(=O)c1cc(-c2ccc(Cl)s2)nc2c1c(C)nn2C
23	.	i	O=C(c1cccs1)N1CCc2ccccc21
41	.	i	Cc1onc(-c2ccccc2)c1C(=O)Nc1sc2c(c1C#N)CCC(C)C2 (stereo not drawn)
49	>57	i	COc1cc2c(cc1OC)C(C(=O)NCc1ccco1)C(c1cccs1)N(C)C2=O (stereo not drawn)

# Compound profiles, from the list above. Order of values: Bst PK mod, TsaE inh
# CSc1nc(C)cc(-n2ccc(=O)[nH]c2=O)n1 is entered as >57, i
# Cc1nnc(NC(=O)CCCCCN2C(=O)C3C4C=CC(C4)C3C2=O)s1 (stereo not drawn) is entered as ., i
# CCC(=O)Nc1ccc2c(c1)nc(CCN1CCN(C)CC1)n2C is entered as >57, i

# Continuation.
no.	Bst PK mod	TsaE inh	SMILES
51	.	i	CCOC(=O)N1CCN(c2nc(-c3ccc(F)cc3)cs2)CC1
52	>57	i	CCN(CC)C(=O)Cn1nnc(-c2ccc(C)o2)n1
53	>57	i	Cc1ccc(/C(O)=C2\C(=O)C(=O)N(c3cc(C)on3)C2c2cccc(Br)c2)cc1 (stereo not drawn)
54	>57	i	COc1ccc(OCCC(=O)Nc2cc(C)on2)cc1
55	>26	.	CCCOc1ccc(/C(O)=C2/C(=O)C(=O)N(CCN(C)C)C2c2ccncc2)cc1 (stereo not drawn)
56	>57	i	CC(C)N(Cc1nc(-c2ccccc2)no1)C(=O)CSc1ccccc1
57	>57	i	CCc1cc(-c2n[nH]c(C)c2-c2nc3ccccc3n2C)c(O)c(CN2CCN(C)CC2)c1O
58	.	i	Nc1c2c(nc3ccccc13)CCCC2
59	>57	i	COc1ccccc1Oc1c(C)oc2c(CN3CCN(C)CC3)c(O)ccc2c1=O
60	.	i	Cc1ccccc1Nc1nc(CSc2nnc(-c3ccoc3C)n2C)cs1
61	>57	i	COC(=O)c1ccc(CSc2nc3c(cnn3-c3ccc(C)c(C)c3)c(=O)[nH]2)o1
62	>57	i	O=S(=O)(c1cccc(-c2cn3cccnc3n2)c1)N1CCCCCC1
63	.	i	COc1ccc2[nH]cc(CCNc3ncncc3-c3ccccc3CN(C)C)c2c1
64	>57	i	COc1ccc(-c2coc3c(CN4CCCCC4)c(O)c(CN4CCCCC4)c(O)c3c2=O)cc1
65	>57	i	OC(CN1CCOCC1)Cn1c(-c2cccc(Cl)c2)nc2ccccc21 (stereo not drawn)
66	>57	i	C=CCn1c(=O)c2c(C)c(C)sc2n2c(Nc3ccccc3)nnc12
67	>57	i	COc1cc2nc(C3CCC3)n(NC(=O)C3CCC(OC)CC3)c(=O)c2cc1OC (stereo not drawn)
68	>57	i	CCOC(=O)C1CCN(CC(=O)c2c(C)[nH]c3ccccc23)CC1
69	>57	i	CN1CCC(N(C)C(=O)c2ccccc2Nc2ccc(SC(F)F)cc2)CC1
70	>57	i	O=C(COC(=O)C12CC3CC(CC(C3)C1)C2)NCc1ccco1
71	.	i	CCCOc1ccc(N2C(=O)CC(N3CCC(O)(c4cccc(C(F)(F)F)c4)CC3)C2=O)cc1 (stereo not drawn)
72	>26	.	CC1(C(=O)CSc2n[nH]c(-c3ccccc3Cl)n2)CCC(=O)O1 (stereo not drawn)
73	.	i	Cc1cc2nc(C)c(Cc3ccccc3)c(=O)n2[nH]1
74	.	i	COc1ccc([C@@H](C)c2cc3c(cc2O)OCO3)cc1
75	>57	i	COC(=O)c1ccccc1NC(=O)CC(NCc1ccccc1)C(=O)O (stereo not drawn)
76	>57	i	O=C(NCc1ccco1)C1CCN(C(=O)c2cc3sccc3n2Cc2ccc(F)cc2)CC1
77	>57	i	CCOC(=O)c1ccc(NC(=O)CSc2nnc(-c3ccncc3)n2C)cc1
78	>57	i	Cc1nn(S(=O)(=O)N(C)C)c(C)c1CN1C(=O)c2ccccc2C1=O
79	>57	i	CCC(C)n1c(SCC(=O)NC(=O)Nc2ccc3c(c2)OCCO3)nc2ccccc2c1=O (stereo not drawn)
80	>57	i	O=C(Oc1nsnc1N1CCOCC1)N(c1ccccc1)c1ccccc1
81	>57	i	CCN1CCN(CNC(=O)c2cnccn2)CC1
82	>57	i	Cc1noc(C)c1COC(=O)Cc1ccc(Cl)cc1
83	>57	i	CCc1nc2oc3ccccc3c(=O)c2c(=O)n1CCOC
84	.	i	CC(C)C[C@@H](CC(=O)N[C@@H](CCCN)CC(=O)N[C@@H]1CCNC[C@H]1C(=O)N[C@H](CC(=O)N[C@@H](CCC(=O)O)CC(=O)O)CC(C)C)NC(=O)[C@@H]1CCCC[C@H]1N
85	.	i	C[C@]1(C(=O)NCCc2c[nH]c3ccccc23)C=C[C@@H](Cc2ccccc2)N1C(=O)c1ccccc1
86	.	i	Cc1ccnc(NS(=O)(=O)c2ccc(N)cc2)n1
87	>57	i	N#CCCn1c(Cl)nc2ccccc21
88	.	i	COc1ccc(-c2cc(NCCc3ccncc3)n3ncnc3n2)cc1
89	>57	i	COc1ccc(OCCSc2nnc(-c3ccoc3C)n2C)cc1
90	>57	i	CC(=O)Nc1ccc(C(=O)N2CCN(C(=O)c3ccco3)CC2)cc1
91	>57	i	O=C(CCCn1c(=S)[nH]c2cc3c(cc2c1=O)OCO3)N1CCN(c2ccccc2)CC1
92	.	i	CN(C)CCCN=C(N)N
93	.	i	O=C1CC(Cc2ccccc2)C(=O)N1CCCn1ccnc1 (stereo not drawn)
94	.	i	CC(C)=NNc1ncnc2nc[nH]c12
95	>57	i	COc1c(F)c(F)c(C(=O)Nc2ccc(NC(=O)c3ccco3)cc2)c(F)c1F
96	>11	.	O=c1oc2c(CN3CCCCC3)c(O)ccc2c2c1CCCCC2
97	.	i	Cc1ccccc1-n1c(Cn2c(=O)sc3ccccc32)nnc1SCC(=O)N1CCCC1
98	.	i	Cc1noc(C)c1C(=O)N1CCC[C@@]2(CCN(Cc3cc(C(F)(F)F)cc(C(F)(F)F)c3)C2)C1
99	.	i	CCOC(=O)c1c(C(C)(C)C)oc2ccc(OCC#N)cc12
100	>57	i	O=C(NCc1ccccn1)c1cc(-n2cnnc2)ccc1Cl

# A stretch from the list above, as a working copy:
no.	Bst PK mod	TsaE inh	SMILES
87	>57	i	N#CCCn1c(Cl)nc2ccccc21
88	.	i	COc1ccc(-c2cc(NCCc3ccncc3)n3ncnc3n2)cc1

# Other records:
no.	Bst PK mod	TsaE inh	SMILES
101	>57	i	Cc1ccc(C2CC(C(F)(F)F)n3ncc(C(=O)NCc4ccco4)c3N2)cc1 (stereo not drawn)
102	i	i	CN(C)c1cccc(-c2nnc(SCCCC#N)o2)c1
103	.	i	CCOC(=O)Cc1cnc(NC(=O)c2ccccc2)s1
104	>57	i	Cc1cc(NC(=O)CCC(=O)N(c2ccccc2)C2(C(=O)NC3CCCCC3)CCCC2)no1
105	.	i	Cc1cnc(CNc2cc(-c3cccc(NS(C)(=O)=O)c3)ncn2)cn1
106	>57	i	CCC(C)(C)NC(=O)C(c1ccncc1)N(Cc1cccs1)C(=O)Cn1nnc2ccccc21 (stereo not drawn)
107	.	i	C=CCOc1cccc(C2c3c(oc4ccc(F)cc4c3=O)C(=O)N2CCCN2CCOCC2)c1 (stereo not drawn)
108	i	i	CSc1cccc(NC(=O)CN(C2CCCCC2)S(C)(=O)=O)c1
109	>57	i	CC(NC(=O)c1ccco1)C(c1cccs1)N1CCN(c2ccc(F)cc2)CC1 (stereo not drawn)
110	>57	i	O=C(C1CCCO1)N1CCN(S(=O)(=O)c2ccccc2)CC1 (stereo not drawn)
111	.	i	O=c1nc(-c2ccccc2)c2cc(Cl)ccc2[nH]1
112	>11	.	CC(C)(C)C1=Nn2c(nnc2-c2ccccn2)SC1
113	>57	i	CN1C=C(C(F)(F)F)C=C/C1=C(\C#N)c1nnc2n1CCCCC2
114	.	i	CC(=O)O[C@H]1C(=O)[C@]2(C)[C@H]([C@H](OC(=O)c3ccccc3)[C@@]3(O)C[C@H](OC(=O)[C@@H](O)[C@@H](NC(=O)c4ccccc4)c4ccccc4)C(C)=C1C3(C)C)[C@]1(OC(C)=O)CO[C@@H]1C[C@@H]2O
115	>57	i	Cc1[nH]nc2c1C(c1ccc(OC(=O)c3ccco3)cc1)C(C#N)=C(N)O2 (stereo not drawn)
116	.	i	C/C(=N\NC(N)=S)c1ccc[nH]1
117	i	i	COc1ccc(CCNc2nc(C)nc3c2oc2ccccc23)cc1OC
118	.	i	O=C(CNC(=O)Cn1ccc2ccccc2c1=O)NCCCN1CCCCCC1
119	.	i	O=C1c2ccccc2C(Nc2ccc(F)cc2F)N1CCN1CCOCC1 (stereo not drawn)
120	.	i	CC(=O)OCC1OC(c2ccccc2)C(OC(C)=O)C(OC(C)=O)C1OC(C)=O (stereo not drawn)
